# KCNQ2 enhance: potentiators of rat KCNQ2 potassium channel. O88943. CHO-K1 KCNQ2, FluxOR thallium flux fluorescence; stronger effect = higher value. B-score at 10 µM. 0.54% of 310,000 active;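 active means fluorescence ratio B-score at least 3 SD of library B-scores, with initial fluorescence B-score within 3 SD, cut at about 5.3 in these data; same plate scores as AID 2156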;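 further: B-score of peak minus minimum over baseline fluorescence ratio after K+ and Tl+ stimulus; positive B-score means potentiation of KCNQ2 with more thallium influx and brighter signal; only the inactives scoring about 0 or higher are listed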
# Target sequence (O88943 whole entry, looked up): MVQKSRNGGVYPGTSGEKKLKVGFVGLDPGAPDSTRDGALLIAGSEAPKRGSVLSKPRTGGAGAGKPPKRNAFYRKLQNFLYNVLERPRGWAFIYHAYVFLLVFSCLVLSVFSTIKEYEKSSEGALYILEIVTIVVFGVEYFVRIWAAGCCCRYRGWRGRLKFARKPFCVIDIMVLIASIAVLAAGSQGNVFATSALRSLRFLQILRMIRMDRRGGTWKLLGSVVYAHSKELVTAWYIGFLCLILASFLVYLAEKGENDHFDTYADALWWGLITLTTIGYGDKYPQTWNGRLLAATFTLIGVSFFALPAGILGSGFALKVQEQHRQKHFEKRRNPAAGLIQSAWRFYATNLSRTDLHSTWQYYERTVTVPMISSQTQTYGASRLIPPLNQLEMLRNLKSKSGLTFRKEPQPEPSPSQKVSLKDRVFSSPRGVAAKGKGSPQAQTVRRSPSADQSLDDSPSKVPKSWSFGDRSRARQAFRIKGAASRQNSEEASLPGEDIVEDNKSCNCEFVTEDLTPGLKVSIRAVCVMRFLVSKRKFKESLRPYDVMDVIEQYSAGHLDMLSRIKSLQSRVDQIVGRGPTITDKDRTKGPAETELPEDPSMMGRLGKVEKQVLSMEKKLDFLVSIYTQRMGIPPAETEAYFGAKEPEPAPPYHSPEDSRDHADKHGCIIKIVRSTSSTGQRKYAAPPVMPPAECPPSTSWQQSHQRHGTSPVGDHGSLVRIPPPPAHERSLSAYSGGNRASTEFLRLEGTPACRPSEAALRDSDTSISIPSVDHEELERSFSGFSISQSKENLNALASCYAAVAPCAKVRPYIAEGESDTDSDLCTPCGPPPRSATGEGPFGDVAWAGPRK
# KCNQ2 enhance baseline: recorded beside KCNQ2 enhance, whose call it bears; B-score; compound at 10 µM; measured here: initial fluorescence intensity artifact check;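 brightness before thallium and not channel activity; 0 = typical well and far values either way flag optical interference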
# * marks the source's active call; other numbers are inactive results; · = no result given; & = joins results of further samples. An excerpt; rates above refer to the full screens.
entry	Molecule	KCNQ2 enhance baseline	KCNQ2 enhance
1	CC(C)OC(=O)CSc1nnc(-c2ccccn2)n1C	0.13	1.1
2	CC(C)C(C)NC(=O)CN1C(=O)NC(C)(c2ccc3ccccc3c2)C1=O (stereo not given)	0.01	1.5
3	COc1cc(NS(=O)(=O)c2ccc(N=Cc3c(C)[nH]n(-c4ccccc4)c3=O)cc2)nc(OC)n1	0.54	0.08
4	CC(=O)Nc1ccc(S(=O)(=O)NCCc2cc3ccc(C)c(C)c3[nH]c2=O)cc1	-0.74	1.2
5	CCN(CC(=O)Nc1ccccc1C(F)(F)F)C(=O)c1cc(S(=O)(=O)N(C)C)ccc1N1CCCC1	-0.19	1
6	Cc1cccc(NC(=O)CSc2nnc(-c3ccc(S(=O)(=O)N4CCOCC4)cc3)n2C)c1	0.67	1
7	COc1cc(OC)cc(C(=O)Nc2ccc3c(c2)CCCN3C(=O)c2cccs2)c1	-1.3	0.27
8	Fc1cccc2sc(Nc3nc4cc5c(cc4s3)OCCO5)nc12	-0.95	3.5
9	CCOc1ccc(NCc2cc3cc(OC)ccc3[nH]c2=O)cc1	-0.32	1.8
10	O=S(=O)(Nc1ccc(Nc2ccccc2)cc1)c1ccc(F)cc1	0.03	0.83
11	Cc1cc(=O)oc2cc(NC(=O)c3ccc(OC(F)F)cc3)ccc12	-1.2	1.8
12	NS(=O)(=O)c1ccc(N=Nc2ccc(O)c3ncccc23)cc1	-0.79	0.44

# More records
entry	Molecule	KCNQ2 enhance baseline	KCNQ2 enhance
13	CC1CCN(CC(=O)Nc2ccc(C(=O)N3CCCCC3)cc2)CC1	-1.2	0.44
14	CC(=O)Nc1ccc2c(COC(=O)CC3Sc4ccccc4NC3=O)cc(=O)oc2c1 (stereo not given)	1.9	0.03
15	CC1CN(C(=O)C2CC2)C(C)CN1C(=O)C1CC1 (stereo not given)	-0.69	1.4
16	CC(C)COC(=O)N(C)c1ccc(C(O)(C(F)(F)F)C(F)(F)F)cc1	-0.89	0.52
17	O=C(c1ccccc1)N(Cc1cccs1)C1CCS(=O)(=O)C1 (stereo not given)	-1.3	0.59
18	C/C=C/Cn1cccc(C(=O)Nc2ccc(OC)cc2)c1=O	0.52	2.1
19	Cc1ccc(C(=O)O/N=C(\N)Cc2ccc([N+](=O)[O-])cc2)c(Cl)c1	-0.42	0.62
20	OC(c1nc2ccccc2[nH]1)C(O)C(O)C(O)c1nc2ccccc2[nH]1 (stereo not given)	-0.95	0.55
21	CC(C)(C)CC(=O)Nc1ccc(C(N)=O)cc1	0.98	0.07
22	COCCNc1nc(SCC(=O)N2CCN(c3ccccc3)CC2)nc2ccccc12	-0.1	0.49
23	Cc1ccc(C2C3=C(CCCC3=O)N=C3c4ccccc4C(=O)C32)cc1 (stereo not given)	2.9	0.56
24	C=CCN(C(=O)CNC(=O)c1ccco1)C(C(=O)NC1CCCCC1)c1ccc(OC)cc1 (stereo not given)	-0.16	0.79

# (list continues)
entry	Molecule	KCNQ2 enhance baseline	KCNQ2 enhance
25	CCOC(=O)/C(C#N)=C\c1cc(C)n(-c2ccccc2)c1C	0.62	0.6
26	C/C(=N\NC(=S)NC(C)C)c1ccc(-n2ccnc2)cc1	-0.53	1
27	CC(C(=O)Nc1ccc(Cl)cc1Cl)N1C(=O)NC2(CCCC2)C1=O (stereo not given)	2.3	0.85
28	CCNc1nc(Oc2ccc(=O)[nH]n2)nc(SC)n1	-0.67	0.34
29	CC(C)c1ccc(N2C(=NC(=O)C3CCCO3)SC3CS(=O)(=O)CC32)cc1 (stereo not given)	-0.67	0.08
30	O=C(CSc1nnc(CNC(=O)c2ccco2)o1)Nc1ccc(Br)cc1	2.4	0.39
31	Cc1onc(-c2ccccc2)c1C(=O)N1CCN(S(=O)(=O)c2ccc3c(c2)OCCO3)CC1	0.63	0.02
32	CCCSc1nc(C)c(CC(=O)O)c(=O)[nH]1	0.41	1.6
33	COc1ccc(C2=NS(=O)(=O)N(C)C(C(=O)N3CCc4ccccc4C3)=C2)cc1OC	-0.17	0.41
34	Cc1cn([C@H]2C[C@H](N=[N+]=[N-])[C@@H](CO)O2)c(=O)[nH]c1=O	-1.5	0.62
35	CCOC(=O)CNC(=O)CN1C(=O)CC(c2ccccc2)S(=O)(=O)c2ccccc21 (stereo not given)	-0.73	0.85
36	O=C(COC(=O)c1cc[n+]([O-])cc1)Nc1ccccc1Sc1ccccc1	-2.2	1.8

# Remaining list, next part
entry	Molecule	KCNQ2 enhance baseline	KCNQ2 enhance
37	NNC(=O)c1ccc(CSc2n[nH]c(=O)[nH]c2=O)cc1	-1.3	2.1
38	CN(C)S(=O)(=O)N1CCN(C(=O)N2CCOCC2)CC1	-1.9	0.69
39	CCn1cc(CNC(=O)c2ccc3nc(Cc4ccccc4F)oc3c2)cn1	-2.8	0.13
40	Cc1cccc(NC(=O)C2CCN(S(=O)(=O)c3cccs3)CC2)c1	-1.4	1.8
41	COc1ccccc1NC(=S)NCCc1ccc(OC)c(OC)c1	0.35	0.59
42	O=C(N/N=C/c1ccc([N+](=O)[O-])o1)c1cn(-c2ccccc2)nc1-c1ccc(Cl)cc1	-0.01	0.43
43	Cn1cc(SCC(=O)NCC2CCCO2)c2ccccc21 (stereo not given)	-2.4	0.2
44	CCCNC(=S)N(Cc1cc2cc(C)ccc2n2nnnc12)CC(C)(C)CN(C)C	-1.1	1.6
45	O=C(O)c1ccc(Cl)c(NCc2cccnc2)c1	0.89	0.1
46	COc1cc2[nH]cc(C(=O)NCc3ccccc3)c(=O)c2cc1OC	-0.84	1.8
47	O=C(O)c1cc(-c2ccco2)nc2ccc(Br)cc12	-1.9&-2.4	2.1&0.74
48	COc1ccc(/C(N)=N/OC(=O)c2ccc([N+](=O)[O-])c(C)c2)cc1OC	0.04	0.01

# Following part:
entry	Molecule	KCNQ2 enhance baseline	KCNQ2 enhance
49	CCN(CC)c1ccc(/C=N/Nc2nc(C)cc(=O)[nH]2)c(O)c1	0.04	0.78
50	Cc1c(NC(=O)c2cc3nc(-c4ccc(Br)cc4)cc(C(F)(F)F)n3n2)c(=O)n(-c2ccccc2)n1C	0.17	0.9
51	Cc1nc(NC(=O)c2ccc(OCC(C)C)cc2)sc1Cc1ccc2c(c1)OCO2	-0.27	0.55
52	CCCNC(=O)CN1C(=O)NC(CCc2ccccc2)C1=O (stereo not given)	-0.01	0.37
53	CC(=O)c1ccc(N2CCCCCC2)c(F)c1	1.7	0.3
54	CCn1cc(C(=O)O)c(=O)c2cc(F)c(N3CCNCC3)cc21	-0.02	0.38
55	CCOc1ccc(NC(=O)CCn2c(=O)[nH]c3ccsc3c2=O)cc1	-0.31	0.97
56	CN(C)c1cccc2cccc(N(C)C)c12	1.7	0.38
57	COc1ccc(NC(=O)Nc2nc3c(s2)CCCC3)cc1	-1.8	2.1
58	COc1ccc2c(c1OC)CN1CCc3cc4c(cc3[C@@H]1[C@@H]2O)OCO4	-0.83	0.86
59	O=C(c1ccc(Cl)c(S(=O)(=O)N2CCOCC2)c1)N1CCOCC1	-0.22	1.4
60	CCOc1ccc(CCNC(=O)COC(=O)c2ccc(C)c([N+](=O)[O-])c2)cc1OCC	-1.5	2.1

# The listing continues.
entry	Molecule	KCNQ2 enhance baseline	KCNQ2 enhance
61	O=C(CNC(=O)c1ccco1)NCC(=O)OCC(=O)c1ccc(Cl)c([N+](=O)[O-])c1	0.34	0.76
62	Cc1ccnn1CC(=O)N/N=C/c1ccc2c(c1)OCO2	-1	0.18
63	COc1cc(NC(=O)c2cccs2)c(C(=O)OCC(=O)NC(=O)NCc2ccccc2)cc1OC	-2.3	1.3
64	[O-][n+]1onc2c1CCc1c-2nc(-c2ccccc2)n1OCc1ccccc1	-0.58	1.1
65	NC(=O)N/N=C/c1cc(F)cc(F)c1	1.1	0.01
66	CCOC(=O)c1cccc(NC(=O)CCn2cccc2)c1	0.6	0.91
67	Cc1cccc(N(CC(=O)NC2CC2)S(=O)(=O)c2ccc(Cl)cc2)c1	-0.11	0.14
68	O=CN1CCN(C(=O)CN2C(=O)c3ccccc3C2=O)CC1	-0.89	0.93
69	Cc1nn(-c2ccccc2)c2[nH]c(=O)c(CNCC3CCCO3)cc12 (stereo not given)	0.84	0.23
70	CN1C(=O)c2cccc3c(S(=O)(=O)Nc4ccccc4F)ccc1c23	1.4	0.05
71	NC(=O)/C(=C\c1ccco1)NC(=O)c1ccc(Br)o1	0.09	0.05
72	CN(CC(CC(=O)O)c1ccccc1)S(=O)(=O)c1ccc(Br)cc1 (stereo not given)	-0.76	0.95

# Carrying on.
entry	Molecule	KCNQ2 enhance baseline	KCNQ2 enhance
73	CCC(=O)Nc1ccc(Oc2ccc3c(c2)C(=O)N(c2ccc(O)cc2)C3=O)cc1	0.72	0.07
74	CC(=O)c1cc(C#N)c(N2CCOCC2)nc1C	-0.39	0.75
75	COc1ccc(-c2cc(C(=O)NCC3CCCO3)c3cc(C)ccc3n2)cc1 (stereo not given)	·	-5.6
76	O=c1[nH]c2cc3c(cc2cc1C(c1nnnn1Cc1ccccc1)N1CCCCCC1)OCCO3 (stereo not given)	0.04	0.83
77	O=C(Nc1nncs1)C1(c2ccccc2)CCCC1	0.86	0.83
78	COc1ccc(OC)c(NC(=O)Cn2cc(C(=O)c3ccco3)c3ccccc32)c1	0.06	0.09
79	Cc1ccccc1N=C/C=C1\N(C)c2ccccc2C1(C)C	0.26	0.53
80	O=C(O)CCc1ccc(-c2ccc(Cl)cc2)n1Cc1ccco1	0.26	0.05
81	O=C(CNC(=O)c1ccc(S(=O)(=O)N2CCCC2)cc1)N/N=C/c1c(Cl)cccc1Cl	-0.22	0.03
82	Cc1ccc(C(=O)Nc2cccc(C(=O)N3CCN(C)CC3)c2)cc1	-2.4	0.01
83	NS(=O)(=O)c1ccc(NC(=O)COC(=O)C2CC(=O)N(Cc3ccccc3)C2)cc1 (stereo not given)	-0.92	0.01
84	CCOc1ccc(C(=O)Nc2ccc(C(=O)N3CCOCC3)cc2)c(OCC)c1	1	0.71

# Additional records.
entry	Molecule	KCNQ2 enhance baseline	KCNQ2 enhance
85	Nc1ccc(N2CCOCC2)c(S(=O)(=O)Nc2cc(Cl)ccc2Cl)c1	-1.7	0.49
86	Cc1ccc2nc3c(cc(C(=O)NC4CCCC4)c(=N)n3C3CCCCC3)c(=O)n2c1	0.02	1.4
87	COc1cccc(/C=C/C(=O)NCc2ccc3c(c2)OCO3)c1	-0.26	0.65
88	Cn1c(=O)c2c(nc(CN3CCOCC3)n2CC(=O)c2ccccc2)n(C)c1=O	-2.7	0.02
89	O=C(COc1ccccc1)NC1CCCCC1	-1.9	0.12
90	COc1nc2c(s1)C(=O)NCCC2	0	2.1
91	Cc1ccc(NS(=O)(=O)c2c(C)[nH]c(=O)[nH]c2=O)c(Br)c1	-0.83	1.3
92	Cc1cc(C(=O)O)cc(Br)c1N	0.23	1
93	COc1ccc(/C=C(\NC(=O)c2ccccc2Cl)C(=O)NCCCC(=O)O)cc1	-1.1	1
94	CC(=O)NC(CCS(C)(=O)=O)C(=O)Nc1ccc2c(c1)OCCO2 (stereo not given)	0.3	0.04
95	Nc1c(Cl)cnn(-c2ccccc2)c1=O	-0.42	0.54
96	CCOC(=O)CCC(=O)NNC(=O)c1ccc(NC(=O)c2ccccc2)cc1	-0.68	0.71

# (further entries)
entry	Molecule	KCNQ2 enhance baseline	KCNQ2 enhance
97	COc1ccc(NC(=O)C2CCCC2)cn1	1.1	0.73
98	COc1cc(/C=N/NC(=O)[C@H](Cc2c[nH]c3ccccc23)NC(=O)OCC(C)C)cc([N+](=O)[O-])c1O	0	0.46
99	CCCCCCn1c(N2CCC(C(N)=O)CC2)nc2c1c(=O)[nH]c(=O)n2C	-0.96	1.9
100	CCOC(=O)CNC(=O)c1ccccc1Br	-0.04	0.35
101	Cc1ccc2c(c1)C1NC(=S)NC(C)(O2)C1C(=O)Nc1ccc(Cl)cc1 (stereo not given)	1.4	0.28
102	NC(=O)C1CCCN(C(=S)NCc2ccc3c(c2)OCO3)C1 (stereo not given)	0.01	0.06
103	O=C(N1CCN(c2ccc(F)cc2)CC1)C1(c2cccs2)CCOCC1	-0.98	0.16
104	CC1C(=O)C(C)C(c2cccs2)NC1c1cccs1 (stereo not given)	-1.2	0.2
105	O=S(=O)(NNc1ccc(F)cc1F)c1cccc(Cl)c1	-0.27	0.03
106	CCCNC(=O)c1cc(OC)c(OC)cc1[N+](=O)[O-]	0.69	0.42
107	c1ccc(CSc2nnc(SCc3ccccn3)s2)nc1	-0.17	0.79
108	CCOC(=O)CNC(=O)c1sc(NC(=O)c2ccccc2F)nc1C	-1.1	1.5

# (next part)
entry	Molecule	KCNQ2 enhance baseline	KCNQ2 enhance
109	CC1CCCC(NC(=O)CN2C(=O)COc3ccccc32)C1C (stereo not given)	0.03	0.5
110	CS(=O)c1ccc(-n2c(=O)n(Cc3ccccc3)c(=O)c3[nH]cnc32)cc1 (stereo not given)	0.05	0.3
111	Cn1c(=O)c2sccc2n(CC(=O)NCCC2=CCCCC2)c1=O	0.03	0.14
112	CCOC(=O)c1cccc(NC(=O)CCCn2c(=O)c3cccn3c3cccnc32)c1	0.36	0.65
113	O=C(/C=C/c1ccc(Br)cc1)c1ccc(NC(=O)c2ccco2)cc1	1.1	0.86
114	COc1ccc(C(=O)/C=C/c2ccc(OC)c(CN3CCOCC3)c2)cc1	-0.57	0.07
115	CCC(C(=O)OCC(=O)Nc1c(Cl)cccc1Cl)c1ccccc1 (stereo not given)	-0.8	0.05

# High-throughput results deposited in PubChem BioAssay by Johns Hopkins Ion Channel Center.
